# CtBP-E1A inh: inhibitors of CtBP/E1A interaction; AlphaScreen GST-E1A/His-CtBP binding, 1536-well; stronger effect = lower value; control for the full effect not named in the record; actives 0.49% (n = 340,000); activity change, % (no concentration beside the values); in the data active means activity change below about -65%; inconclusive means about -30% to -65%; inactive means above about -30%; further: on the % scale 0 is the no-effect control and ±100 the full control effect; compound concentration not given in the record
#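 In 5 uL wells, 23 nL compound meets equimolar GST-E1A and His-CtBP (5X stock 125 nM each) for 2 h, 37 °C. Beads (5X, 50 ug/mL) then 1 h, 37 °C, dark.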
# Six1-Eya2 inh: Six1/Eya2 interaction inhibition; Q15475+O00167; AlphaScreen GST-Six1/His-Eya2 binding, biochemical; stronger effect = lower value; control for the full effect not named in the record; activity change, % (test concentration not listed); actives 0.56% (n = 360,000); in the data active = activity change below about -65%; inconclusive = about -30% to -65%; inactive = above about -30%; further: on the % scale 0 is the no-effect control and ±100 the full control effect; compound concentration not given in the record
# Target sequence (O00167 whole entry, looked up): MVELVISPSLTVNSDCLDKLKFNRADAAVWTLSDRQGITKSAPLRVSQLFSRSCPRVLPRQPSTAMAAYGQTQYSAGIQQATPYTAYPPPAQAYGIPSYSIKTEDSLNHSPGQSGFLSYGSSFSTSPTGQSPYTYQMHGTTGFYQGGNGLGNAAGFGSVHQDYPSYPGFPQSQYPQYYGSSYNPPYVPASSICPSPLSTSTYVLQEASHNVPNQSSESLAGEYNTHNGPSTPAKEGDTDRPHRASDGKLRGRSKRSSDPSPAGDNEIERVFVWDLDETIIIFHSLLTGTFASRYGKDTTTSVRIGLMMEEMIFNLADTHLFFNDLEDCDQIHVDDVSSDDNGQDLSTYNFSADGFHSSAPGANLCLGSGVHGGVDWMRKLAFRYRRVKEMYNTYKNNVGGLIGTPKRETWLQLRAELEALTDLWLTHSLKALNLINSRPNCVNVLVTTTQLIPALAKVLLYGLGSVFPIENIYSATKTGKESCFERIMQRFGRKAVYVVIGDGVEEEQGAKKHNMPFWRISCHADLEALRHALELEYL
# Target sequence (Q15475 whole entry, looked up): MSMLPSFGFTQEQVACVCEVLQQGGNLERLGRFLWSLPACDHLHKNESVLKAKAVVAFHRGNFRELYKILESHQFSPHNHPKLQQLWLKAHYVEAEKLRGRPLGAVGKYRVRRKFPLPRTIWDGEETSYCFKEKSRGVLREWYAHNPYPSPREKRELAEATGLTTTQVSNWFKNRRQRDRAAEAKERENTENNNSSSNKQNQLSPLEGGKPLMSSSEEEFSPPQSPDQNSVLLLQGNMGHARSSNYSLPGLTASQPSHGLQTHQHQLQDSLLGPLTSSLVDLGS
#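 Six1/Eya2 binding was read as AlphaScreen signal after compounds were pinned into GST-Six1 plus His-tagged Eya2 (5X stock 250/500 nM) in pH 8.0 Tris/NaCl/TCEP buffer, beads added, then incubated 1 h, 37 C, dark.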
# D2 potentiator: potentiates the human D2 dopamine receptor allosterically. P14416. DiscoveRx D2 beta-arrestin cells, luminescence, 90 min; 100% = 57 uM dopamine signal. potentiation, % (no concentration beside the values). actives 0.23% (n = 360,000). AID 624464; active = potentiation of 50% or more; inconclusive = 30% to 50%; inactive = 30% or less;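 further: compound concentration not given in the record; tested on top of an EC20 dose of dopamine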
#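 D2 cells co-treated with compound plus 50 nM dopamine (EC20) for 90 min at 37 deg C to detect potentiation. Beta-arrestin recruitment was read as enzyme-fragment luminescence after 1 h at ambient temperature. Full response was set by 57 uM dopamine.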
# D2 agonist: agonists of human D2 dopamine receptor (beta-arrestin). DiscoveRx PathHunter D2 beta-arrestin, luminescence, 90 min; 100% = 57 uM dopamine signal. activation, % (concentration not given with the values). actives 0.084% (n = 360,000). AID 624465; in the data active = activation above about 40%; inconclusive = about 15% to 40%; inactive = below about 15%; further: compound concentration not given in the record; the text of the record calls up to 30% inactive
#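 Agonist mode: compounds alone added to overnight-plated D2 PathHunter cells for 90 min at 37 C, with 57 uM final dopamine (EC100) defining full response. Beta-arrestin recruitment detected by chemiluminescent reagent, read after 1 h at ambient temperature.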
# PINK1 modulator: changes PINK1 expression; PINK1 immunofluorescence, high-content cytometry, 24 h; Potency, µM (highest dose often 76.6 µM), for inactives: top-dose activation (PINK1 increase), hits mostly activators; actives 0.2% (n = 410,000); active = well fitted activation curve with a large enough effect; inconclusive = small, poorly fitted or top-dose-only effect; inactive = flat fitted curve, though single readings scatter; cell line not stated here;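 further: potency means the concentration at half of the fitted maximal effect; % of control where 0% means no effect; nearly all actives have a fitted effect of over 65% in size; a mitochondrial uncoupler was the plate control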
#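 Measures PINK1 amount and localization on or inside mitochondria by immunofluorescence. Stable cells get compounds at 5 concentrations for 24 hours before fixation and staining; CCCP controls included.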
# TRPML1 agonist: human mucolipin-1 channel agonism. TRPML1-expressing cells, Ca2+ dye fluorescence, FDSS; host cell line not named in the record; reference of the full effect not given here. activation, % (no concentration beside the values). actives 0.12% (n = 410,000); in the data active = activation above about 50%; inconclusive = about 30% to 50%; inactive = below about 30%; further: 0% is about no effect; the text of the record puts the active cut at 80%
#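 Cells: TRPML1-DL, 1X Tet inducer, ~16 h at 37 degrees C/5% CO2. Dye: ABD Ca8 no-wash + quencher, 45-90 min RT. Read: 10 s baseline, compound add, 110 s agonist phase; 54-4 EC80 (4uM final), 110 s antagonist phase.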
# Numbers without * were called inactive; ? = inconclusive; / = no result given; [ ] = dose if it differs, or a comment.
SMILES	CtBP-E1A inh	Six1-Eya2 inh	D2 potentiator	D2 agonist	PINK1 modulator	TRPML1 agonist
CCC(C)NC(=O)COc1ccc(Br)c(C)c1 (stereo unspecified)	4	0	3	0.1	-3.7%	-0.8
Cc1cc(C)c(NC(=O)c2ccc(S(=O)(=O)N(C)C)cc2)c(C)n1	11	3	-13	-1.6	7.0%[38.3 µM]	-0.1
COc1ccccc1NC(=O)c1ccccc1S(=O)(=O)c1ccccc1[N+](=O)[O-]	-22	-12	-4	-3.7	-2.4%	4.0
CCOC(=O)[C@]12CCCC=C1N(Cc1ccc(Cl)cc1Cl)C(=O)[C@H](CC(=O)NCC1CCCCC1)C2	2	-2	/	/	0.7%	-0.3
CC1CCc2c(sc(NC(=O)CN3CCN(C(=O)c4ccco4)CC3)c2C#N)C1 (stereo unspecified)	-4	-10	-7	-1.0	-1.1%	0.7
CCOc1ccc(C(C)NC(=S)NCc2ccc(F)cc2)cc1 (stereo unspecified)	1	-5	-13	0.6	0.1%	-0.2
CCOC(=O)c1nn(-c2ccc(F)cc2)c(=O)cc1OCC(=O)Nc1cccc(C)c1	-22	8	2	-1.8	15%	2.6
Cc1ccc(S(=O)(=O)/N=C(\CN2CCOCC2)N2CCOCC2)cc1	0	17	4	-4.2	/	0.0
C=CCN1c2ccccc2[C@]23C[C@@H](C(=O)OC)N(C(=O)OCC)C2=NC(C(=O)OC)=C(C(=O)OC)[C@H]13	-1	-3	-6	-1.5	0.2%	0.7
CCOc1ccc(C(=O)NNC(=O)CN2C(=O)NC3(CCCC3)C2=O)cc1	7	3	3	-3.9	5.3%	3.0

# Two compounds from above with just D2 potentiator.
compound,D2 potentiator
CC1CCc2c(sc(NC(=O)CN3CCN(C(=O)c4ccco4)CC3)c2C#N)C1 (stereo unspecified),-7
CCOc1ccc(C(C)NC(=S)NCc2ccc(F)cc2)cc1 (stereo unspecified),-13

# Further entries follow.
SMILES	CtBP-E1A inh	Six1-Eya2 inh	D2 potentiator	D2 agonist	PINK1 modulator	TRPML1 agonist
Cc1c(CN2CCN(CC(C)C)C(CCO)C2)[nH]c2ccc(Cl)cc12 (stereo unspecified)	-11	-12	-4	7.7	-1.1%	-0.5
Cc1c(N(C)S(=O)(=O)c2cccc(C(=O)NC(C)C)c2)c(=O)n(-c2ccccc2)n1C	23	13	-7	-2.9	-1.2%	-0.7
COc1ccc(C(=O)Nc2cccc(/C(C)=N\NC(=O)c3ccoc3C)c2)cc1OC	-18	-10	-10	-9.5	3.7%	1.3
O=C(COC(=O)CCNS(=O)(=O)c1ccc(Cl)cc1)Nc1ccccc1OC(F)F	15	0	16	-3.8	2.3%	-0.6
Cc1ccc(S(=O)(=O)N2CCCCC2)cc1NC(=O)c1cnccn1	-9	-1	-15	-3.1	0.6%	0.4
CN1C(=O)C(C)(C)c2cc(S(=O)(=O)N3CCC(C(=O)NCc4ccccc4Cl)CC3)ccc21	-15	7	-1	-2.5	0.9%	0.0
CC(C)(CNc1ccc([N+](=O)[O-])cc1Cl)CNS(C)(=O)=O	4	2	-7	-1.8	-2.5%	-0.5
CC(Oc1ccc(Br)cc1)C(=O)NCC(C)(C)N1CCOCC1 (stereo unspecified)	11	2	-20	-1.2	-0.8%	0.3
O=C(NC1CC1)C1=C[C@H](c2coc3ccccc3c2=O)C[C@H](OCCCCO)O1	4	-3	-10	1.1	-0.1%	-0.7
CCN(CC)C(=O)c1sc(NC(=O)C(Sc2ccccc2)c2ccccc2)c(C(=O)OC(C)C)c1C (stereo unspecified)	8	-14	-4	-6.3	8.1%	-0.2
Cc1[nH]c2ccccc2c1-c1csc(N)n1	-22	-2	-4	3.6	0.9%	1.0
COc1ccc(-c2noc(CCC(=O)NCC3CCN(Cc4cccc(C)c4)CC3)n2)cc1	5	3	-22	-0.3	0.3%	-1.0
CCOC(=O)COc1ccc2c3c(c(=O)oc2c1C)CCC3	4	-24	?	-1.7	-0.5%	-1.0
c1csc(-c2nnsc2-c2nc3ccccc3[nH]2)c1	-2	0	-4	-1.8	0.1%	1.3
Cc1ccc(C(=O)NC(C)c2ccccc2)o1 (stereo unspecified)	2	1	4	1.0	0.8%[38.3 µM]	-0.4
CCCOc1ccc(CC(=O)NNC(=S)Nc2ccccc2)cc1Br	0	-8	-21	-7.5	1.4%	-0.2
Cc1cc(C)c2c(-n3cccc3)n[nH]c2n1	-11	-5	-23	2.9	-2.5%	1.0
C=CCN(CC=C)C(=O)Cn1cnc([N+](=O)[O-])n1	1	-1	-4	-3.2	-0.8%	0.2
O=C(c1ccc2c(Cl)c3c(nc2c1)CCCC3)N1CCN(c2ccc(F)cc2)CC1	0	0	-5	-2.0	-0.1%	3.5
COc1ccc(C(=O)Nc2nnc(CCS(=O)(=O)c3ccc(C)cc3)s2)cc1	/	5	-1	-2.3	7.8%	2.4

# A run of entries from the list above:
SMILES	CtBP-E1A inh	Six1-Eya2 inh	D2 potentiator	D2 agonist	PINK1 modulator	TRPML1 agonist
CCC(C)NC(=O)COc1ccc(Br)c(C)c1 (stereo unspecified)	4	0	3	0.1	-3.7%	-0.8
Cc1cc(C)c(NC(=O)c2ccc(S(=O)(=O)N(C)C)cc2)c(C)n1	11	3	-13	-1.6	7.0%[38.3 µM]	-0.1
COc1ccccc1NC(=O)c1ccccc1S(=O)(=O)c1ccccc1[N+](=O)[O-]	-22	-12	-4	-3.7	-2.4%	4.0

# The listing continues:
SMILES	CtBP-E1A inh	Six1-Eya2 inh	D2 potentiator	D2 agonist	PINK1 modulator	TRPML1 agonist
CC1CCN(c2nc(-c3ccccc3)c(C#N)c(=O)[nH]2)CC1	-1	0	-5	-0.9	-2.0%	0.6
CC1CC(C)CN(S(=O)(=O)c2ccc(C(=O)NCCCn3ccnc3)cc2)C1 (stereo unspecified)	0	-5	-3	-3.6	-2.5%	-0.5
Cc1cc(=O)oc2cc(Oc3ncccn3)ccc12	0	3	7	-2.6	0.6%	0.4
COc1ccc(CCC(=O)Nc2nnc(C)s2)cc1	-2	-1	-4	0.6	-0.5%	0.0
O=C(OCc1ccccc1)N1CCC2CC1c1cc(-c3ccc(F)cc3)ccc12 (stereo unspecified)	15	14	1	-0.5	4.5%	3.4
COc1ccc(C(=O)N2CCN(c3cnn(-c4ccccc4)c(=O)c3Cl)CC2)cc1	3	0	-3	1.7	-1.1%	-0.6
CCN1CCc2nc3sc(C(=O)N4CCc5ccccc5C4)c(N)c3cc2C1	-11	2	-1	3.4	0.4%	2.0
CCCCNC(=S)NNC(=O)c1c(Cl)c(C)nn1C	-5	-12	-33	-11	4.9%	-0.2
CCCCNc1nc2ccccc2n1CC(=O)Nc1c(C)cccc1CC	0	18	-22	-4.7	3.6%	2.7
CC(=O)Nc1ccc(N/C=C/C(=O)c2ccc(Cl)cc2)cc1	-13	1	-5	4.3	11µM*	-0.1
C=CCn1c(O)c(N=NC(=O)OC(C)(C)C)c2ccccc21	1	-4	-36	-7.4	0.2%	1.4
CCCCOC(=O)n1c(SCC(=O)N(C)C)nc2ccccc21	-2	-5	1	-1.5	6.2%[38.3 µM]	0.7
O=C(CCNC(=O)c1ccccc1Cl)NCCc1ccc(C(F)(F)F)cc1	6	-3	-2	-0.7	0.6%	0.9
COCCOC(=O)c1c(C)oc2ccc(NS(=O)(=O)c3ccccc3)cc12	7	-2	-2	3.5	-6.9%[38.3 µM]	1.5
CCOC(=O)C1CCCN(C(=O)c2ccc(OC)cc2)CC1 (stereo unspecified)	10	0	1	2.1	-1.0%	0.4
O=C(NCCN1CCOCC1)c1ccc([N+](=O)[O-])cc1[N+](=O)[O-]	0	2	50*	6.8	-1.1%	-0.3
c1ccc(Nc2c3c(nc4ncnn24)CCC3)cc1	2	0	-3	-1.1	-17%[38.3 µM]	-0.4
COC(=O)/C(=C/N(C)C)C(=O)N1CCN(c2ccc(Cl)c(Cl)c2)CC1	-5	-7	2	5.5	-1.5%	-0.5
O=C(NCC1(c2ccccc2)CCCC1)C(=O)N1CCOCC1	-1	3	4	-2.5	-2.5%	-0.4
C/C(=N\NC(=O)CC1N=C(Cc2ccccc2)NNC1=O)c1ccc(Br)cc1 (stereo unspecified)	/	0	-3	2.3	3.3%	2.8
C/C(=N\N=C\c1cccc(F)c1)c1nnn(-c2nonc2N)c1C	0	18	-10	-1.0	15%	-0.8
CCC(C)Cn1c(C(C)C)nc2ccccc21 (stereo unspecified)	7	4	0	1.8	0.2%	-1.0
CCC1CCCCN1c1nc(-c2cccc(OC)c2O)nc2ccccc12 (stereo unspecified)	?	?	-11	0.6	2.5%[38.3 µM]	3.5
CCOC(=O)/C(C#N)=C/c1cn(CCC(=O)O)nc1-c1cccc(Cl)c1	0	3	-5	5.3	-0.2%	0.3
COC(=O)c1ccc(/C=N\N2CCN(c3ccccc3)CC2)cc1	/	-1	7	3.7	2.0%	/
COc1ccc(Nc2ncc(C(=O)N3CCC(C(N)=O)CC3)c3ccccc23)cc1	-3	4	1	-3.8	-4.7%	-0.5
Cc1ccc2c(Cl)cc(Cl)c(OCC(=O)NC(=O)NCc3ccco3)c2n1	2	-5	-9	-2.3	?	0.3
COc1cccc(CN2CCC2(C)C(=O)Nc2cccc(Oc3ccccc3)c2)c1F (stereo unspecified)	5	8	-2	-3.0	7.9%	0.0
COc1ccc(CCC(=O)Nc2cccc(S(=O)(=O)N3CCOCC3)c2)cc1OC	8	-3	-2	2.1	2.8%	-0.3
COc1ccc(Cl)cc1C(=O)Nc1ccc2c(c1)OCO2	0	-5	1	-2.6	5.8%	0.0
CN1CCN(C(=O)C2CCCN(c3ncnc4c3nc3n4CCCCC3)C2)CC1 (stereo unspecified)	5	-2	-6	2.1	1.5%	-0.5
CCCCCCOC(=O)C1=C(C)NC(=O)NC1c1ccc(O)cc1 (stereo unspecified)	3	-8	-2	-1.7	5.5%	0.8
C[C@H](CO)N1C[C@H](C)[C@@H](CN(C)C(=O)C2CCOCC2)Oc2ncc(Br)cc2C1=O	0	1	/	-1.8	1.3%	/
Cc1cc(C)c2cc(C#N)c(SCC(=O)NCC3CCCO3)nc2c1 (stereo unspecified)	12	0	6	-4.7	7.9%	-0.9
O=C(Nc1nccs1)c1cc(-c2ccncc2)nc2ccccc12	-26	-17	1	1.5	-2.1%	0.5
NC(=O)C(c1ccc(Sc2ccccc2)nn1)c1ccc(Cl)cc1Cl (stereo unspecified)	-5	-2	3	-0.8	0.4%	0.3
O=C1c2ccccc2C2=Nc3ccccc3SC(c3cccc(F)c3)C12 (stereo unspecified)	-4	?	-12	-11	40µM*	1.3
Cc1ccccc1CN1N=C(/C=C/c2ccccc2)CCC1=O	9	8	-17	1.3	-1.5%	-0.2
COc1ccc(-n2nc(C(=O)O)c3ccccc3c2=O)cc1	6	7	-14	0.6	11%[38.3 µM]	0.2
O=C(NCCc1ccccc1)c1cccc2c(-c3ccc(F)c(F)c3)coc12	-6	12	-6	3.6	-1.0%	2.2
COc1cc(C2C3=C(CCCC3=O)Nc3c2c(C)nn3-c2cccc(C)c2)cc(OC)c1O (stereo unspecified)	-3	-5	2	-2.6	-0.5%	-0.6

# Assay outcomes (PubChem BioAssay)
